HCMV UL50-53 inh: inhibitors of HCMV UL50-UL53 nuclear egress complex interaction; HTRF UL50-UL53 interaction, normalized percent inhibition; inhibition, % (no concentration beside the values); hit rate 0.15% among 190,000;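 active = both replicates at 50% or more, plus weaker picks with an unusually low signal ratio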;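 also: stock transfer was 100 nL into about 20 µL; 0% = negative control wells and 100% = wells with untagged competitor protein; inactives centre near -12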
* = called active by the depositor; & = joins results of further samples. The list is partial; the hit share may differ from the screen's.

SMILES	HCMV UL50-53 inh
COc1ccc(NC(c2ccccn2)c2c(C)[nH]c3ccccc23)c(OC)c1 (centres undefined)	3.7&-10.6
COCCn1c(=NC(=O)/C=C/c2cccs2)sc2cc(Br)ccc21	-3.4
O=C(NC(=O)C(F)(F)F)Oc1ccc(Cl)cc1	-12.5
O=c1[nH]c(C23CC4CC(CC(C4)C2)C3)cs1	-15.1
C[C@]12CC[C@@H]3c4ccc(O)cc4C[C@@H](CCCCCCCCCS(=O)CCCC(F)(F)C(F)(F)F)C3[C@@H]1CC[C@@H]2O (some centres undefined)	-4.5
O=C1C2C3C=CC(C3)C2C(=O)N1c1cccc(O)c1 (centres undefined)	4.4
Clc1ccc(-c2cnc3[n+](c2)[C@H](CBr)CS3)cc1	-28.3
Cc1[nH]c2ccccc2c1Sc1ccccc1N	1.7

Shown bar-delimited: entries from further up.
Molecule | HCMV UL50-53 inh
Clc1ccc(-c2cnc3[n+](c2)[C@H](CBr)CS3)cc1 | -28.3
Cc1[nH]c2ccccc2c1Sc1ccccc1N | 1.7
COCCn1c(=NC(=O)/C=C/c2cccs2)sc2cc(Br)ccc21 | -3.4
O=C1C2C3C=CC(C3)C2C(=O)N1c1cccc(O)c1 (centres undefined) | 4.4

Bioassay records (PubChem BioAssay)
